# Vaccinia mCherry – inhibitors of vaccinia virus infection (mCherry reporter signal); 310,000 tested, 0.63% active; Vaccinia virus mCherry reporter infection, fluorescence; about a quarter of the inactives have no number; Potency, µM (series often up to 36.5 µM), for the others: at the highest dose activity change, negative = inhibition, usual class: inhibitors; active = well fitted inhibition curve with a large enough effect; inconclusive = small, poorly fitted or top-dose-only effect; inactive = no such curve, though single readings can be large or run the other way; tested in A549 cells; also: nearly all actives have a fitted effect of over 35% in size; inactives centre near -10
# VACV Venus inh – inhibitors of vaccinia virus (Venus reporter) | Vaccinia virus Venus reporter expression, fluorescence | Potency, µM (highest dose often 36.5 µM), inactives show top-dose activity change, negative = inhibition, usual class: inhibitors | 330,000 tested, 0.46% active; active means well fitted inhibition curve with a large enough effect; inconclusive means small, poorly fitted or top-dose-only effect; inactive means no such curve, though single readings can be large or run the other way; tested in A549 cells; also: nearly all actives have a fitted effect of over 30% in size; inactives centre near -10
# An asterisk follows results filed as active; i = inactive; ? = inconclusive; / = not tested or not shown; & = joins results of further samples; [ ] = remark or other dose. % is scaled to controls: 0 for no effect and ±100 for the full control effect; potency is read from the fitted curve at half-maximal effect.
SMILES,Vaccinia mCherry,VACV Venus inh
CCC(=O)[C@@H](C)[C@@H](OC(C)=O)[C@H](C)C[C@@H](C)[C@H]1OC(=O)C[C@@]2(O)CC=C(C)C(O2)C(C)=CCCC[C@H](O[C@H]2C[C@@H](OC(N)=O)[C@H](OC(C)=O)[C@@H](C)O2)C=C[C@H](C)C[C@H]1C,-16.9%,?
O=C(CCNC(=O)c1ccc(Br)cc1)NCC1CCCO1 (centres undefined),-12.8%,-1.9%
COc1cc(/C=C2/C(=N)N3C=CSC3=NC2=O)ccc1OCCOc1ccc(NC(C)=O)cc1,i,1.0%
O=C(COC(=O)c1ccccc1)c1ccc(S(=O)(=O)N2CCCCC2)cc1,-8.7%,-4.6%
CC1COC2N=C(N[N+](=O)[O-])NC2O1 (centres undefined),-14.2%,-2.2%
COc1ccc(-n2ncc(C(C)NS(=O)(=O)c3cccs3)c2C)cc1 (centres undefined),-3.2%,-19.2%
N#CC1=C(SCc2ccccc2)NC(=O)CC1c1ccc(O)cc1 (centres undefined),?,?
CC(C)OC(=O)CC(NC(=O)OC(C)(C)C)c1ccccc1 (centres undefined),i,0.9%
CCCN(c1ccccc1F)S(=O)(=O)c1ccc2c(c1)C(C)(C)C(=O)N2C,i,-10.5%
CCc1cccc(C)c1NC(=O)Cn1nnc(-c2nc(-c3ccccc3F)no2)c1N,-11.4%[7.34 µM],-15.9%[7.34 µM]
CN(C)C(=O)C(=O)c1c(-c2ccccc2)cc2ccccn12,/,-27.3%
CS(=O)(=O)N(CC(=O)N/N=C/c1cc([N+](=O)[O-])ccc1Cl)c1ccccc1,/,-10.9%
Cc1ccc(Cl)cc1NS(=O)(=O)N1CCOCC1,i,-12.0%
COc1ccc2cc(-c3[nH]ncc3CN3CCCCO3)ccc2c1,-2.5%,6.2%
Cc1cc(Cl)ccc1OCC(=O)Nc1c(Cl)ccc2nsnc12,-18.6%,-11.8%
CCc1ccc(NS(=O)(=O)c2ccc3[nH]cc(C(=O)N(C)Cc4ccco4)c(=O)c3c2)cc1,-4.7%,-6.9%&-5.9%
CC(C)N1CCN(C(=O)c2ccc(OC3CCN(CCc4ccccc4)CC3)cc2)CC1,-13.8%,-11.4%
CCNC(=O)C1(C)CCCN(Cc2cc3ccccc3o2)C1 (centres undefined),20.1%,-3.8%
O=C(COc1c(Br)cc(Br)c2cccnc12)N1CCCCC1,-12.8%,-14.4%
Nc1nc(-c2ccc3ccccc3c2)cs1,-22.6%,-20.1%
O=C(Nc1ccc(S(=O)(=O)Nc2ncccn2)cc1)c1ccc(Br)o1,i,-10.2%
C=CCc1c(C)nc(SC)nc1Nc1ccc(C)cc1,-27.4%,-19.9%
CCc1ccc(NC(=O)C2CC(=O)Nc3ncnn32)cc1 (centres undefined),i,-13.0%
COc1ccc(NC(=S)N(CCc2c(C)[nH]c3ccc(C)cc23)Cc2cccs2)cc1,?,?
CCNC(=O)CSc1nnc(C2CC2)n1-c1ccccc1,/,-0.1%
COC(=O)c1cc(Br)c(=O)n(-c2ccccn2)c1,/,5.1%
Cc1onc(-c2ccccc2Cl)c1C(=O)Nc1ccc(S(=O)(=O)Nc2nccs2)cc1,i,-2.2%
CCOc1ccccc1C(=O)N(CCC(=O)OC)c1ccccn1,i,-4.5%
C=CCNC(=O)C1CCCN(S(C)(=O)=O)C1 (centres undefined),-1.3%,-2.6%
CCOC(=O)c1sc(-c2ccc(Cl)cc2Cl)nc1O,-11.0%,-14.9%
COc1ccc(C2(C)C(C#N)C(=O)NC(=O)C2C#N)cc1 (centres undefined),i,-2.9%
O=C(Cn1c(=O)n(-c2ccccc2)c(=O)c2c3c(sc21)CCCC3)Nc1cccc(F)c1,-8.9%,-6.8%
CC(C)C(=O)N1CCC1(C)C(=O)Nc1nc2ccccc2[nH]1 (centres undefined),13.8%,-4.1%
O=c1cccc2n1CC1CNC[C@H]2C1,-1.0%,-9.5%&-9.3%
CCN(C(=O)COC(=O)/C=C/c1ccc(S(=O)(=O)N2CCc3ccccc32)cc1)C1CCS(=O)(=O)C1 (centres undefined),?,-27.9%
COc1ccc(Cl)cc1NC(=O)c1cc(-c2ccccc2O)n[nH]1,?,-27.6%
COc1ccc(C2/C=C\CN(C(=O)CC(C)(C)C)CC(=O)N2Cc2ccc(F)cc2)cc1 (centres undefined),-14.6%,-9.6%
CCCCCCCCc1nc(SCC(C)=O)n[nH]1,-4.0%,2.9%
CCCCCNCc1cccc(Br)c1,i,-16.4%
Cc1nn(Cc2ccccc2)c(Cl)c1/C=C/C(=O)OCC(=O)N(C)C1CCS(=O)(=O)C1 (centres undefined),-4.8%,5.4%
Cc1ccc(C(=O)Nc2nc3ccc(Cl)cc3s2)o1,i[7.34 µM],-7.2%[7.34 µM]
Cc1ccc(C(=O)NCC(c2ccco2)S(=O)(=O)c2cccs2)cc1C (centres undefined),-13.1%,-15.2%
COc1ccc(C2CC(c3cccs3)=NN2S(C)(=O)=O)cc1 (centres undefined),-9.3%,-7.3%
CCC(C)C1NC(=O)C(C(C)=O)=C1O (centres undefined),-11.7%,-15.2%
Cc1ccc(O)c(C(=O)/C=C/c2ccc3c(c2)OCCO3)c1,i,-18.6%
CC(C)Cn1c(N)c(C(=O)COC(=O)c2cc(C(F)(F)F)nc3ccccc23)c(=O)n(C)c1=O,?,?
CC(=O)Nc1ccc(NC(=O)CSc2nc(N)c(NC(=O)c3ccccc3F)c(=O)[nH]2)cc1,-4.7%,-4.7%
Cc1oc(-c2ccc(Cl)cc2)cc1C(=O)/C(C#N)=C/Nc1cccc(OC(F)(F)F)c1,i,4.6%
Oc1ccccc1C1=NN(c2ccccc2)C(c2ccc(F)cc2)C1 (centres undefined),-26.0%,-4.4%
CC(=O)NCC(=O)NC(Cc1ccccc1)C(N)=O (centres undefined),/,-0.7%
CCCc1c(-c2ccccc2Br)ncn1Cc1ccccc1OC,-18.3%,-16.6%
Nc1nc(COC(=O)c2ccc3c(c2)OCCO3)nc(Nc2ccccc2)n1,-21.7%,-19.7%
COCC1CCCN(Cc2nc(C(c3ccccc3)c3ccccc3)no2)C1 (centres undefined),-6.5%,-2.1%
CC(=O)c1cn(-c2ccc([N+](=O)[O-])cc2)c(=O)n(C)c1=O,i,-2.0%
CCCn1c2ccccc2c2cnn(CC(=O)N3CCCC(C(=O)OCC)C3)c(=O)c21 (centres undefined),-5.1%,-11.1%
CC(=O)OC1c2ccccc2C(=O)N1Cc1ccccc1Cl (centres undefined),-15.1%,13.1%
COc1ccc(C(=O)OC(C)CN2CCN(C)CC2)cc1 (centres undefined),i,-10.5%
CC1CCC(NC(=O)CN(C)CC(=O)Nc2ccc(F)cc2)CC1 (centres undefined),-10.8%,-13.8%
Cc1c(C(=O)NCc2ccc(OC(C)C)cc2)sc2ncnc(N(C)C3CCCCC3)c12,-7.2%,-2.3%
CCOCC(=O)Nc1cccc(Br)c1,/,-8.7%

# Exported field by field: entries from further up.
SMILES: COc1ccc(C2CC(c3cccs3)=NN2S(C)(=O)=O)cc1 (centres undefined)
  Vaccinia mCherry: -9.3%	VACV Venus inh: -7.3%
SMILES: CCC(C)C1NC(=O)C(C(C)=O)=C1O (centres undefined)
  Vaccinia mCherry: -11.7%	VACV Venus inh: -15.2%
SMILES: Cc1ccc(O)c(C(=O)/C=C/c2ccc3c(c2)OCCO3)c1
  Vaccinia mCherry: i	VACV Venus inh: -18.6%
SMILES: CC(C)Cn1c(N)c(C(=O)COC(=O)c2cc(C(F)(F)F)nc3ccccc23)c(=O)n(C)c1=O
  Vaccinia mCherry: ?	VACV Venus inh: ?

# Next part:
SMILES,Vaccinia mCherry,VACV Venus inh
COCCCNC(=O)c1cc(C)nc2ccc(F)cc12,-11.0%,2.7%
COc1cc(OC)cc(C(=O)Nc2ccc(C(=O)Nc3ccccc3OC)cc2)c1,-19.2%,?
CN1C(=O)CC(N2CCN(CCN=CC3=C(O)CC(C)(C)CC3=O)CC2)C1=O (centres undefined),-12.8%,-25.1%
COc1ccccc1NC(=O)Nc1cc(C(C)C)ccc1C,-21.1%,-14.1%
COc1ccc(OC)c(S(=O)(=O)N2CCN(c3c(C)cccc3C)CC2)c1,i,5.1%
O=C(Nc1ccc(Br)cc1)C1CCN(S(=O)(=O)c2cccc3nsnc23)CC1,-5.6%,-0.6%
CCc1ccc(/C=c2\s/c(=C\C(=O)C(C)(C)C)[nH]c2=O)cc1,/,-24.9%
O=C(OC(C(=O)Nc1ccc([N+](=O)[O-])cc1Br)c1ccccc1)c1ccccc1 (centres undefined),-13.7%,-12.0%
CCOc1ccc(NC(=O)c2c(Nc3ccccc3C)sc(C(=O)c3ccccc3)c2N)cc1,-24.6%,-18.3%
CCOc1ccc(CCNC(=O)c2cc3c(=O)n(C)c4ccccc4c3s2)cc1OCC,-10.8%,-12.2%
COC(=O)c1cccc(COC(=O)c2cccnc2SC)c1,/,-14.6%
Cc1c(C)c2ccc(OCC(=O)Nc3ccccc3C(N)=O)cc2oc1=O,-3.7%,6.7%
C=CCN(C(=O)C1CSC2(C)CCC(=O)N12)c1nc(-c2ccccc2)cs1 (centres undefined),-23.8%,?
COc1cccc(/C=N/NC(=O)c2cccs2)c1,-11.3%,0.7%
CC(=O)c1cn(-c2ccc(Cl)cc2)c(=O)n(Cc2ccc(F)cc2)c1=O,i,-15.8%
CCCCS(=O)(=O)Nc1ccc(Cc2ccncc2)cc1,-5.9%,-15.6%
Nc1ccc(S(=O)(=O)c2ccc(N)nc2)cc1,0.0%,6.3%
O=C(c1nnc(-c2ccncc2)o1)c1ccccc1Cl,i,-11.3%
CC(=O)N1CCc2cc(S(=O)(=O)NCCCOC(C)C)ccc21,i,-11.1%
CC(OC(=O)CCCC(=O)Nc1ccc(F)cc1)C(=O)c1ccccc1 (centres undefined),i,-3.2%
CC(=O)c1ccc(NC(=O)Nc2ccc([N+](=O)[O-])cc2C)cc1,-14.7%,-7.0%
Cc1ccccc1C(=O)NNC(=O)Cc1ccccc1,i,-10.1%
NC(CO)C(=O)NNCc1ccc(O)c(O)c1O (centres undefined),-5.4%,-19.5%&-2.9%
FC(F)(F)c1cccc(N2CCC(N=CN3CCCCCC3)=N2)c1,-2.9%,-9.9%
COc1cccc(CNCc2cccc(Br)c2)c1OC,-9.6%,-5.2%
CCOC(=O)c1cnc2ccc(C)cc2c1Sc1ccc(F)cc1,/,?
Cc1cccc(OCC(=O)N2CCC3(CC2)CC(=O)c2ccccc2O3)c1,-3.1%,-7.3%
CCOc1ccc(C(=O)NCCSc2c(C)[nH]c3ccccc23)cc1OCC,-6.5%,-1.1%
CCN(CC)CCn1c2c(c(SCC(=O)Nc3ccccc3Cl)nc1=O)CCCC2,-2.6%,-4.9%
Cc1csc(SCC(=O)NC23CC4CC(CC(C4)C2)C3)n1,/,-23.6%
Cc1cccc(OCCCCn2c(C3CC(=O)N(c4ccccc4Cl)C3)nc3ccccc32)c1 (centres undefined),-20.0%,1.0%
N#C/C(=C\c1c(N2CCOCC2)nc2ccccn2c1=O)S(=O)(=O)c1ccccc1,/,-15.5%
Cc1ccc(C(=O)N2CCN(Cc3cc(=O)n4nc(-c5ccccc5)sc4n3)CC2)cc1,-9.4%,-11.3%
O=C(Nc1cccc2ncccc12)c1cc2ccccc2o1,/,-11.8%
COc1ccc(NC(=O)c2sc(N3CCOCC3)nc2-c2ccccc2)c(OC)c1,?,?
COC(=O)COc1c(Cl)cc(Cl)c2ccc(C)nc12,i,-7.7%
COc1ccc(NC(=S)NCc2ccc(S(N)(=O)=O)cc2)cc1OC,-21.7%,-5.6%
CN(C)c1oc(-c2ccccc2Cl)nc1C#N,3.9%,-3.0%
CCOC(=O)N1CCN(C(=O)c2ccc(Oc3ccc([N+](=O)[O-])cc3)cc2)CC1,-10.8%,-14.8%
COc1ccccc1NC(=O)CCn1c(=O)sc2ccccc21,-4.5%,-14.4%
COc1ccc(NS(=O)(=O)c2ccc(NS(C)(=O)=O)cc2)cc1,-20.7%,-12.5%
CC1CCN(c2nc3c(cc2C#N)COC(C)(C)C3)CC1,-14.8%,-15.1%
Cc1ccc(CNC(=O)c2cnn(-c3cccc(C)c3)c2C2CCN(C(=O)OC(C)(C)C)CC2)cc1,-23.4%,-19.7%
COc1cc(C(=O)N(Cc2ccccn2)CC2CCCO2)cc(OC)c1OC (centres undefined),-12.6%,0.7%
CCOc1ccc(-c2cnc(NCc3ccc(OC)cc3OC)n2C)cc1,-10.5%,-10.5%
COc1cccc(C(=O)N/N=C/c2ccc(OC3CSC3)cc2)c1,/,-21.1%
Cc1cccc(C)c1NC(=S)NCCc1ccccn1,-10.3%,-8.6%
C=CCn1c(O)c(C=Nc2ccccc2)sc1=S,?,-11.7%
COc1ccc(-c2c(C(F)(F)F)oc3cc(OCC(=O)Nc4ccccc4C(F)(F)F)ccc3c2=O)cc1OC,i,-15.8%
COc1ccccc1CCNC(=O)c1cc2c(=O)n3cccc(C)c3nc2n1C,-3.7%,-6.5%
Cc1cc(C(=O)OCC(=O)NCc2ccco2)c(C)o1,i,5.6%
COc1ccc(N2CCN(c3nc(Cl)nc(N4CCOCC4)n3)CC2)cc1,-9.5%,-0.2%
Cc1ccc(S(=O)(=O)NC(=O)C2(C)CCN2C(=O)Cc2cc(F)ccc2F)nc1 (centres undefined),i,-9.0%
COc1ccc(C(=O)COC(=O)c2ccc(NC(C)=O)cc2)cc1[N+](=O)[O-],/,-12.5%
Cc1ccc(S(=O)(=O)Nc2cccc(C(=O)NCC(c3ccco3)N3CCCCC3)c2)cc1F (centres undefined),-0.1%,-21.2%
CSc1nnc(-c2sccc2-n2cccc2)o1,-3.9%,-1.3%
